Screens from PubChem BioAssay.
Bm FixLJ act: activators of Burkholderia fixLJ two-component system, primary screen, B. multivorans, GFP reporter; B. multivorans fixK-promoter GFP reporter, 18 h; stronger effect = higher value; z-score (test concentration not listed); actives 0.3% (n = 29,000);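 active means replicate mean overnight rise in green fluorescent reporter signal, 3 or more SD over negative controls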;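 further: score is relative to vehicle wells of the plate; 300 nL library stock went into each well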
Starred values were filed as active, the others as inactive; & = joins results of further samples. An excerpt; count on the stated rates, not on these rows.

canonical_smiles,Bm FixLJ act
CC1CCC(NC(=O)c2ccc(CS(=O)(=O)c3c(Cl)cccc3Cl)o2)CC1 (stereo not given),-1.7
C=C(C)Cn1c(SCC(=O)Nc2cc(C)ccc2C)nc2sc3c(c2c1=O)CCCC3,0.61
CCCCn1c(SCC(=O)c2ccccc2)nc2sc3c(c2c1=O)CCCC3,-1.8
O=C(Cn1ncc2ccsc2c1=O)N1CCN(c2ccc(F)cc2)CC1,0.34
O=C(Nc1ccc(Cl)cc1)c1cc2c(-c3ccccc3)nn(-c3ccccc3)c2s1,-1.5
CC(=O)NC1CN(C(=O)c2ccc(-c3ccc(O)cc3)cc2)CC1C(C)C (stereo not given),-0.99
COC(=O)c1cc(OCC2CCC2)cc(C(=O)NCC2(C)COC2)c1,0.21
Cc1cc(-c2ccc(C(=O)N3CCCCC3c3nccs3)cc2)nc(N)n1 (stereo not given),-1.3
CCCCNc1cc(C(=O)O)cc(S(N)(=O)=O)c1Oc1ccccc1,1.4&-0.58
COC(=O)CN1C(C(=O)c2ccccc2)=C(OC(=O)c2ccccc2)c2ccccc2S1(=O)=O,2.5
Nc1nonc1-c1nc2ccccc2n1Cc1c(Cl)cccc1Cl,-0.7
N#Cc1ccccc1Cn1c(=O)n(CCCC(=O)NCc2ccc3c(c2)OCO3)c(=O)c2sccc21,0.69

Continuation:
canonical_smiles,Bm FixLJ act
COc1ccc(N(CC(=O)NCCc2ccccc2)S(=O)(=O)c2c(C)nn(C)c2C)cc1,-0.94
CCOC(=O)c1cc2c(=O)n3ccccc3nc2n(Cc2ccco2)c1=NC(=O)c1ccc(F)cc1,-1.5
CCOC(=O)c1cc2c(=O)n3ccccc3nc2n(C(C)C)c1=NC(=O)C(C)(C)Oc1ccc(Cl)cc1,-0.22
COC(=O)c1c(NC(=O)c2nc(SCc3ccc(F)cc3)ncc2Cl)sc2c1CCCC2,0.46
COCCCNC(=O)CN1C(=O)COc2ccc(S(=O)(=O)N3CCOCC3)cc21,0.11
CCn1ncc(CNC(=O)c2cccc(-c3ccc(C(=O)N(C)C)o3)c2)c1C,-0.89
Cc1cccc(NC(=O)C2CCCN(S(=O)(=O)c3c(C)n[nH]c3C)C2)c1 (stereo not given),0.73
Nc1c(C(=O)Nc2ccc(Br)cc2F)sc2nc3c(cc12)N1CCC3CC1,-0.47
Cc1cc(C)nc(NC(=NCCc2c[nH]c3ccc(Cl)cc23)NC(=O)c2ccccc2C)n1,-1.9
COC1CCN(S(=O)(=O)NCC2CCN(C(=O)C(C)C)CC2)CC1,1.8
COc1ccc(CN(Cc2ccco2)C(=O)c2ccccc2F)cc1,-0.91
CC(=O)N1CCc2cc(Br)cc(S(=O)(=O)CCC(=O)N3CCN(c4ccc(F)cc4)CC3)c21,-0.61

The list goes on.
canonical_smiles,Bm FixLJ act
NC(=O)c1cc([N+](=O)[O-])cc([N+](=O)[O-])c1,-1.3
CC(C)NC(=O)CC(=O)Nc1ccc2nc3n(c(=O)c2c1)CCCCC3,0.38
N#Cc1c[nH]c(C(=O)N2CCC(C(=O)N3CCCCC3)CC2)c1,-0.03
O=C(Cn1c(=O)n(-c2ccc(F)cc2)c(=O)c2sccc21)Nc1cccc(C(F)(F)F)c1,-2.4
CCc1ccc(C2N3CC4(C)CN2CC(c2ccccc2)(C3)C4=O)cc1 (stereo not given),0.69
O=C(CCCc1nc(-c2ccncc2)no1)NCCN1CCCOC1=O,0.18
COc1cccc2c1cc1c(=O)n(CC(=O)N3CCN(c4cc(Cl)ccc4C)CC3)nc(C)n12,-1.7
O=C(Cn1c(=O)n(CC2CCCO2)c(=O)c2ccccc21)Nc1ccc(F)cc1F (stereo not given),-0.82
COc1ccc(-c2noc(CN(C(=O)Cc3ccc(C)cc3)C(C)C)n2)cc1,-1.3
Cc1nnnn1CCC(=O)NC1CCN(c2ncccc2C#N)CC1,-0.61
Cc1ccc(NC(=O)Cn2c(=O)n(Cc3ccc(C(=O)NCc4ccc5c(c4)OCO5)cc3)c(=O)c3ccccc32)cc1,-0.16
O=C(O)Cn1nccc1C1CCCN(C(=O)c2ccccc2-c2ncn[nH]2)C1 (stereo not given),-0.34

Five compounds out of the list, ordered by molar mass, ascending.
canonical_smiles,Bm FixLJ act
N#Cc1c[nH]c(C(=O)N2CCC(C(=O)N3CCCCC3)CC2)c1,-0.03
Cc1nnnn1CCC(=O)NC1CCN(c2ncccc2C#N)CC1,-0.61
CC(C)NC(=O)CC(=O)Nc1ccc2nc3n(c(=O)c2c1)CCCCC3,0.38
O=C(CCCc1nc(-c2ccncc2)no1)NCCN1CCCOC1=O,0.18
O=C(Cn1c(=O)n(-c2ccc(F)cc2)c(=O)c2sccc21)Nc1cccc(C(F)(F)F)c1,-2.4

(continued)
canonical_smiles,Bm FixLJ act
COc1ccc(C(=O)N(c2ccc(OC)cc2)S(=O)(=O)c2ccc3c(c2)n(C)c(=O)n3C)cc1,-0.49
COc1ccc(CCNC(=O)c2ccc(Cn3c(=O)c4ccccc4n(Cc4cccc(C)c4)c3=O)cc2)cc1OC,1.2
CCN1C(=O)c2ccccc2S(=O)c2ccc(C(=O)NCc3ccc(C)cc3)cc21 (stereo not given),-1.4
O=C(Nc1ccc(-c2cn3cccnc3n2)cc1)c1cc(Br)ccc1Cl,-1.3
Cc1ccc(C(=O)c2cn(Cc3c(F)cccc3Cl)c3nc(C)ccc3c2=O)cc1,-1.3
CC1(C)S[C@@H]2[C@H](NC(=O)COc3ccccc3)C(=O)N2[C@H]1C(=O)O,-1.4&-0.64
COc1ccc(CNC(=O)c2cc3sccc3n2Cc2ccc(C)cc2)cc1,-0.35
O=C(Cn1c(=O)oc2cc(S(=O)(=O)NC3CCCC3)ccc21)Nc1ccc(F)c(F)c1,-2.3
O=C(NC1CCCCCC1)c1cc2c(Cl)nc3ccccc3c2s1,-0.73
CCOc1ccccc1C(=O)N(Cc1ccc(N(C)C)cc1)CC1CCCO1 (stereo not given),-0.34
Cc1c2cnn(CC(=O)Nc3ccc(F)cc3F)c(=O)c2c(C)n1Cc1cccc(Cl)c1,-1.3
COc1ccccc1Oc1ccc(NC(=O)c2cc(C(C)C)n3ncnc3n2)cn1,-0.39

The results go on:
canonical_smiles,Bm FixLJ act
COc1ccc(-c2nc(CN3CCC(C(=O)NCCc4ccccc4)CC3)c(C)o2)cc1OC,-1.1
Cc1cc(=O)n(-c2ccccc2)n1C,0.19
Cc1cc(C)c(C#N)c(N2CCCC(CNC(=O)CCc3c(C)noc3C)C2)n1 (stereo not given),0.69
Cc1ccc(CN(Cc2ccco2)C(=O)COc2ccc(Cl)cc2Cl)cc1,1.2
CCc1ccc(CNC(=O)c2nn(-c3ccc(OC)c(Cl)c3)c(=O)c3c2c2ccccc2n3C)cc1,0.16
COc1ccc(N2CCN(C(=O)CCc3nnc4n(C)c(=O)c5sccc5n34)CC2)cc1,-0.75
CCOc1ccc(/C=C/c2nc(C#N)c(N3CCN(c4ccccc4)CC3)o2)cc1,-1.7
Cc1cc(-c2cc(S(=O)(=O)N3CCN(C(C)C)CC3)c(C)s2)n[nH]1,-0.14
O=C(Cn1ncc2c1-c1ccccc1OC2)N1CCN(c2ccccc2)CC1,-0.89
CCN(CC)C(=O)CSc1nc(-c2ccccc2)cc(-c2ccc(OC)cc2)c1C#N,-2
CCOC(=O)c1ccc(NC(=O)NC(CC)c2cnn(C)c2)cc1 (stereo not given),-0.05
Cc1oc(-c2ccccc2Cl)nc1CS(=O)(=O)CC(=O)NC(C)c1ccccc1 (stereo not given),-0.89

The listing continues.
canonical_smiles,Bm FixLJ act
O=C(Cn1cc(C(=O)c2ccco2)c2ccccc21)Nc1ccc(Br)cc1,-0.09
Cc1cccc(C(=O)Nc2sc3c(c2C(=O)O)CCCC3)c1,-1.4
Cc1ccc(C)c(CN2C(=O)c3ccccc3S(=O)(=O)c3ccc(C(=O)N4CCN(c5ccccc5)CC4)cc32)c1,0.89
Cc1nc(C)n(CCCNC(=O)CCc2nc(-c3ccccc3C)no2)n1,-0.46
Cc1ccc(Cn2c(=O)n(CCCCC(=O)NCc3ccc4c(c3)OCO4)c(=O)c3ccccc32)cc1,-0.74
Cc1ccccc1NC(=O)CC1C(=O)NCCN1C(=O)c1cccc(Cl)c1 (stereo not given),-1.5
COc1cc(C2CC(=O)Nc3c2c(=O)[nH]c2nc4ccccc4n32)ccc1O (stereo not given),0.52
CCCCCn1c(NCc2ccccc2OC)nc2ccccc21,-2.5
COc1nc2c(cc1C(=O)N1CC(N)CC1C(=O)NC(C)C)CCC2 (stereo not given),-0.28
CCc1nc(SCC(=O)NCc2cc(COC)n[nH]2)n[nH]1,1.3
Cc1ccc(CN(C(=O)COc2ccc(F)cc2)C2CCS(=O)(=O)C2)o1 (stereo not given),-0.8
Cc1ccc(CNC(C)c2ccccc2)s1 (stereo not given),-1

Further entries follow:
canonical_smiles,Bm FixLJ act
CCOc1ccccc1C(=O)N(Cc1sccc1C)C1CCS(=O)(=O)C1 (stereo not given),-1
Cc1cc(C)c2c(n1)sc1c(=O)n(-c3ccccc3C(F)(F)F)nnc12,-1.2
CS(=O)(=O)N(Cc1ccccc1)c1ccc(C(=O)Nc2ccc(Cl)cc2)cc1,1.1
COc1ccc(NC(=O)c2ccco2)cc1NC(=O)C(C)Oc1ccc(Cl)cc1Cl (stereo not given),-1.2
CCc1ccc(C(=O)c2cn(CC(=O)Nc3ccc4c(c3)OCO4)c3ccc(OC)cc3c2=O)cc1,-0.68
CCCc1cc(=O)[nH]c(Nc2ccc(C)c(O)c2)n1,-0.74
COc1cccc(CNC(=O)C(=O)Nc2ccc3nc4n(c(=O)c3c2)CCCCC4)c1,-2.3
CC(=O)OCC(=O)[C@@]12OC3(CCCC3)O[C@@H]1CC1C3CCC4=CC(=O)C=C[C@]4(C)[C@@]3(F)[C@@H](O)C[C@@]12C (stereo not given in full),-1.1
C=Cc1ccc(Cn2c(C)c(CNCc3ccccc3C)c(C(=O)O)c2C)cc1,-0.31
COc1cccc(C(=O)n2nc(-c3cccnc3)nc2NCc2ccc(F)cc2)c1,-1.6
CCCSc1ncc(Cl)c(C(=O)N(Cc2ccc(N(C)C)cc2)C2CCS(=O)(=O)C2)n1 (stereo not given),-1.3
Cc1nc(C(C)Nc2cc(-c3ccccc3)nc3c(C)c(C)nn23)n[nH]1 (stereo not given),-0.6

Other structures follow:
canonical_smiles,Bm FixLJ act
CC1(C)CCN(C(=O)c2cc(COc3cccc(F)c3)[nH]n2)CC1,-5.4
CCCCC1C(=O)N(C)CCN1C(=O)c1csc(SC)n1 (stereo not given),-0.37
COc1ccc(CNc2nc3c(S(=O)(=O)c4ccccc4)nnn3c3ccc(Cl)cc23)cc1,0.54
CCOC(=O)c1cnc2ccc(OCC)cc2c1N1CCN(c2cccc(Cl)c2)CC1,-0.36
CCOc1ccc(CCNC(=O)Cn2ncn3c(cc4sc(C)cc43)c2=O)cc1OCC,-0.87
CNS(=O)(=O)Cc1ccc2[nH]cc(CCN(C)C)c2c1,-1.7
O=C(Cc1ccccc1O)N1CC(CO)C(CN2CCCC2)C1 (stereo not given),-1.6
Cc1cc(OCC(=O)Nc2ncn[nH]2)c(C)c(C)c1Br,0.56
CCOc1cc(C2c3c(-c4ccc(Br)cc4)n[nH]c3C(=O)N2c2ccc(Cl)cc2)ccc1O (stereo not given),-1.1
CCCSCCCNC(=O)CN1C(=O)COc2ccc(S(=O)(=O)N3CCCC3)cc21,-1.2
Cc1cccc(C(=O)NC(=O)Nc2ccc(-n3nc(C(F)(F)F)cc3C(F)(F)F)cc2)c1,-2.7
Cc1cc(Cl)ccc1NC(=O)C(=O)NCc1ccco1,-0.21

Quoted at random: 2 compounds from above.
canonical_smiles,Bm FixLJ act
CS(=O)(=O)N(Cc1ccccc1)c1ccc(C(=O)Nc2ccc(Cl)cc2)cc1,1.1
CC1CCC(NC(=O)c2ccc(CS(=O)(=O)c3c(Cl)cccc3Cl)o2)CC1 (stereo not given),-1.7

Going on with the list:
canonical_smiles,Bm FixLJ act
COc1cc(Br)c(C2CC(=O)Nc3cc(OC)c(OC)c(OC)c32)cc1OC (stereo not given),-0.25
CC1CCN(c2oc(/C=C/c3ccc(F)cc3)nc2C#N)CC1,-1.7
COc1ccc(Cl)cc1NC(=O)c1cc(C)nn1-c1ccccc1,0.1
CCOc1ccc(CN2C(=O)c3ccccc3Sc3ccc(C(=O)NCc4ccc5c(c4)OCO5)cc32)cc1,0.5
c1ccc2c(c1)sc1ccccc12,1.3
CCN(CCc1nc2ccc(OC)cc2[nH]1)C(=O)NCc1nnc(C)o1,0.64
O=C(Nc1cccc(-n2cccn2)c1)C1Cc2ccccc2CN1 (stereo not given),0.19
COc1ccc(-n2cc(-c3ccccc3)c3c(SC(C)C(C)=O)ncnc32)cc1 (stereo not given),0.64
CN(Cc1cccc(OCCCn2ccnc2)c1)C1C[C@@H]2CC(O)C[C@H]2C1,0.72
CCCOc1ccccc1C(=O)N1CCCCC1CCN1CCCCC1 (stereo not given),-0.73
COc1cccc(-c2nc(S(=O)(=O)c3ccc(Cl)cc3)c(NCc3ccccc3)o2)c1,2.3
Cc1ccc(CCNC(=O)C(CC(C)C)NS(=O)(=O)c2ccc3c(c2)oc(=O)n3C)cc1 (stereo not given),-2.4

Further results follow:
canonical_smiles,Bm FixLJ act
CCCN(C(=O)c1cn(C)c(=O)c2ccccc12)c1ccccc1C,-0.04
CC(c1cnn(C)c1)n1cnc(-c2ccccc2)c1-c1ncc[nH]1 (stereo not given),-0.4
Cc1cccc(NC(=O)CSc2ncc(-c3ccc(Br)cc3)[nH]2)c1,-0.28
COc1ccc(-c2cc(C(=O)Nc3c(C)n(C)n(-c4ccccc4)c3=O)no2)cc1,-1.5
CSc1ccc(C2c3c(oc4cc(C)cc(C)c4c3=O)C(=O)N2Cc2ccco2)cc1 (stereo not given),-0.9
O=C(O)C1(Cc2ccc(F)cc2)CCCN(Cc2cccnc2)C1 (stereo not given),-0.36
CCOc1cccc2c1N[C@@H](c1ccc(C(=O)O)cc1)[C@H]1CC=C[C@@H]21,-1.5
